AID504770: growth inhibitors of E. coli YBA685 in a screen for V. cholerae RctB (chromosome II replication) inhibitors; E. coli YBA685 rctB-dependent plasmid, OD600 growth, 3 h; stronger effect = lower value; actives 0.27% (n = 130,000); AID 504770; z-score (concentration not given with the values);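 active means z-score under -2 on both plates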;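 further: wells of about 30 µL received 100 nL stock; score is relative to mean and SD of the test wells; the first replicate is given; strong numbers were not always called active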
Ba CapD inh: CapD enzyme inhibition; purified CapD enzyme, fluorescence intensity read-out; stronger effect = lower value; some hits fall short of the stated cut; z-score (concentration not given with the values); actives 0.23% (n = 140,000);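 active means z-score under -4 in either of two replicates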;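 further: stock transfer was 100 nL into about 40 µL; score is relative to mean and spread of the plate; one replicate is shown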
Active calls of the source: *. Not a hit list; about 0.39% have a hit in one of these screens.

How did CC(=O)O/N=C(\N)c1ccc(Br)cc1 do in these assays?
AID504770: -1.2; Ba CapD inh: 0.02

What do the screens show for `CC(=O)NNc1ccc2nnc(-c3ccccc3)n2n1`?
AID504770: -0.6; Ba CapD inh: -1.7

What do the screens show for `O=c1c2oc3ccccc3c2n(Cc2ccc(F)cc2)c(=O)n1Cc1ccc2c(c1)OCO2`?
AID504770: 0.35; Ba CapD inh: 2.3

Results for Cc1cc2c(c(=O)o1)C(c1cc(Br)ccc1OC(=O)N1CCOCC1)C(C#N)=C(N)O2 (stereo not given) ?
Ba CapD inh: -0.91

What do the screens show for `CCC1CCCCN1C(=O)c1cc(-c2ccc(OC)c(OC)c2)on1` (stereo not given)?
AID504770: -0.55; Ba CapD inh: 0.41

Results for Cc1ccc2nc(SCC(=O)O)[nH]c2c1 ?
AID504770: -1.1; Ba CapD inh: 0.085

How did COC(=O)C1=C(C)N=c2s/c(=C\c3cc(Br)ccc3OC(C)=O)c(=O)n2C1c1cccs1 (stereo not given) do in these assays?
Ba CapD inh: -0.02

Results for OCCS ?
Ba CapD inh: 0.095

What do the screens show for `CC(C)Cn1cc(NC(=O)NCc2ccccn2)c2ccccc2c1=O`?
AID504770: -0.1; Ba CapD inh: 26

How did CCOC(=O)c1c(Cl)c2ccccc2oc1=O do in these assays?
AID504770: -0.1; Ba CapD inh: 0.92

What do the screens show for `O=c1c2ccccc2nc2c3ccccc3c(NCCO)nn12`?
AID504770: 0.8

What do the screens show for `COC(=O)c1ccc(C(c2c(O)ccc3ccccc23)N2CCOCC2)cc1` (stereo not given)?
AID504770: -0.95

Results for CCOC(=O)c1cc(C#N)c(N2CCN(C(=O)OCc3cc4c(cc3[N+](=O)[O-])OCO4)CC2)nc1C(F)(F)F ?
Ba CapD inh: -0.045

How did COc1ccc(Br)cc1C1Nc2cccc3cccc(c23)N1 do in these assays?
Ba CapD inh: 1.4

What do the screens show for `C=CC(=O)Nc1cc(C(=O)OC)ccc1C(=O)OC`?
AID504770: 1.4

Results for O=C(O)CCCN=C(c1ccc(Cl)cc1)c1cc(F)ccc1O ?
AID504770: -0.75; Ba CapD inh: -0.7

How did CS(=O)(=O)N1CCN(c2ccc(NC(=O)c3ccc4c(c3)OCO4)cc2)CC1 do in these assays?
AID504770: 0.95

How did Nc1c(C(=O)Nc2cccc(Cl)c2)sc2nc3c(cc12)C(=O)CCC3 do in these assays?
Ba CapD inh: -0.09

Results for CCOc1ccc2c(c1)C1=C(SC(C(=O)OC)=C(C(=O)OC)C13SC(C(=O)OC)=C(C(=O)OC)S3)C(C)(C)N2C(=O)CC ?
Ba CapD inh: -0.41

How did CCNC(=S)Nc1cccc(NC(=O)c2ccccc2O)c1 do in these assays?
AID504770: -0.1; Ba CapD inh: 32

What do the screens show for `CC1(Cc2cn(CCC(=O)O)c3ccccc23)OCCO1`?
AID504770: 1.1; Ba CapD inh: -0.17

Results for C/C(=N\Oc1nc(-c2ccccc2)ns1)c1cccs1 ?
AID504770: -0.1; Ba CapD inh: -0.86

What do the screens show for `CC(C)n1c(=O)c(=O)[nH]c2cc(S(C)(=O)=O)ccc21`?
Ba CapD inh: -0.1

What do the screens show for `CCN(CC)c1ccc2cc(-c3nc(-c4ccc(Br)cc4)cs3)c(=Nc3ccccc3OC)oc2c1`?
Ba CapD inh: 0.58

What do the screens show for `COc1cccc(N2C(=O)/C(=C/C=C/c3ccco3)C(=O)NC2=S)c1`?
AID504770: -0.8; Ba CapD inh: -7.4*

What do the screens show for `O=C(O)CN1C(=O)/C(=C\c2ccsc2)SC1=S`?
AID504770: 0; Ba CapD inh: -2.1

Results for O=C1NC(=Nc2ccccc2)S/C1=C/c1cc2c(cc1Br)OCO2 ?
Ba CapD inh: 0.42

How did CCOC(=O)CC1=C(C(=O)OCC)C(c2c(F)cccc2Cl)C(C#N)=C(N)O1 (stereo not given) do in these assays?
Ba CapD inh: -0.07

What do the screens show for `O=C(Nc1ccccc1-c1ccccc1)c1cccs1`?
AID504770: -0.55; Ba CapD inh: -0.89

What do the screens show for `CCn1c(SCC(=O)Nc2ccccc2)nc2c(c1=O)SCC2`?
AID504770: 1.5; Ba CapD inh: -1

Part of the list above in order of SMILES length, largest number first:
How did CCOC(=O)CC1=C(C(=O)OCC)C(c2c(F)cccc2Cl)C(C#N)=C(N)O1 (stereo not given) do in these assays?
Ba CapD inh: -0.07

What do the screens show for `COc1cccc(N2C(=O)/C(=C/C=C/c3ccco3)C(=O)NC2=S)c1`?
AID504770: -0.8; Ba CapD inh: -7.4*

What do the screens show for `CC(C)n1c(=O)c(=O)[nH]c2cc(S(C)(=O)=O)ccc21`?
Ba CapD inh: -0.1

What do the screens show for `CCn1c(SCC(=O)Nc2ccccc2)nc2c(c1=O)SCC2`?
AID504770: 1.5; Ba CapD inh: -1

Results for C/C(=N\Oc1nc(-c2ccccc2)ns1)c1cccs1 ?
AID504770: -0.1; Ba CapD inh: -0.86

What do the screens show for `O=C(O)CN1C(=O)/C(=C\c2ccsc2)SC1=S`?
AID504770: 0; Ba CapD inh: -2.1

(listing goes on)
How did CCN(Cc1ccccc1)S(=O)(=O)c1cc(C(=O)Nc2ccc(C)c(F)c2)ccc1F do in these assays?
Ba CapD inh: -0.51

How did O=C(CN1C(=O)c2cccc3cccc1c23)N1CCCCC1 do in these assays?
AID504770: -1.2; Ba CapD inh: -0.33

What do the screens show for `CCc1cc2c(cc3c(=O)n(CC(=O)NC(C)c4ccc5c(c4)OCCO5)nc(CC)n32)s1` (stereo not given)?
AID504770: 0.1; Ba CapD inh: 3.5

How did CCC(=O)Nc1ccc2c(c1)ncn2C do in these assays?
AID504770: -1.9

What do the screens show for `COC(=O)c1cc(NC(=O)c2cc3nc(-c4ccc(OC)c(OC)c4)cc(C(F)(F)F)n3n2)cc(C(=O)OC)c1`?
Ba CapD inh: -0.2

What do the screens show for `NS(=O)(=O)c1ccc(C(=O)N/N=C/c2ccc(F)c(Br)c2)cc1`?
Ba CapD inh: 0

What do the screens show for `Cc1cc(N)nn1C(=O)CSc1nc2cc(C(=O)NCc3ccco3)ccc2c(=O)n1Cc1ccco1`?
Ba CapD inh: 0.03

Results for O=C(Nc1cc(Cl)cc(Cl)c1)c1csc(Cc2ccc(Cl)cc2)n1 ?
Ba CapD inh: -0.22

How did O=C(CSc1nnc(-c2ccc(Cl)cc2)n1CC1CCCO1)Nc1ccc2c(c1)OCCO2 (stereo not given) do in these assays?
AID504770: -0.9

How did CN(C)CCN1C(=O)C(O)=C(C(=O)c2cc3ccccc3o2)C1c1ccccc1 (stereo not given) do in these assays?
AID504770: -0.45; Ba CapD inh: -0.85

What do the screens show for `CN(Cc1ccccc1)C(=O)COC(=O)C1CC2C=CC1C2` (stereo not given)?
AID504770: 0.7; Ba CapD inh: 0.1

How did COc1ccc(N(C)CN2C(=O)/C(=C\c3cccc(F)c3)SC2=S)cc1 do in these assays?
Ba CapD inh: -0.69

How did N#CC1=C(SCC(=O)Nc2ccc(Br)cc2)NC(=O)CC1c1ccc(O)cc1 (stereo not given) do in these assays?
Ba CapD inh: -0.14

What do the screens show for `Nc1ccc(C(=O)OCC(=O)NC23CC4CC(CC(C4)C2)C3)cc1`?
AID504770: -2.3; Ba CapD inh: -0.085

How did COc1cc(OC)nc(CSc2ccc(NC(=O)C(C)(C)C)cc2)n1 do in these assays?
Ba CapD inh: -0.28

How did CN1C(=S)NC(C)(C)CC1(C)c1ccc(O)cc1O (stereo not given) do in these assays?
Ba CapD inh: -0.18

Results for Cc1ccc(OC/C(=N/OC(=O)NC2CCCCC2)C(C)(C)C)c([N+](=O)[O-])c1 ?
Ba CapD inh: -1

Results for O=S(=O)(c1ccc(Cl)cc1)N1CCC(O)(CN2CCCCCC2)CC1 ?
Ba CapD inh: 0.03

How did Cc1ccc(N2C(N)=C(C#N)C(c3cccnc3)C3=C2CC(C)(C)CC3=O)cc1 (stereo not given) do in these assays?
AID504770: -0.2; Ba CapD inh: 0.28

How did CCNS(=O)(=O)c1cc(-c2nn(C)c(=O)c3ccccc23)ccc1C do in these assays?
AID504770: -0.55; Ba CapD inh: -0.6

How did c1ccc2sc(C3CCCCN3)nc2c1 (stereo not given) do in these assays?
AID504770: -1.1

What do the screens show for `COc1cc(OC)cc(C(=O)Nc2cc(C(=O)Nc3ccccc3OC)ccc2N2CC3CC(C2)c2cccc(=O)n2C3)c1` (stereo not given)?
Ba CapD inh: 0.01

What do the screens show for `CSc1sc(C(=O)O)c2c1S(=O)(=O)N(C)c1ccsc1-2`?
AID504770: -0.7; Ba CapD inh: 0.1

What do the screens show for `COC(=O)C1=C(C)OC(=O)C1(NC(=O)C1CCCCC1)C(F)(F)F` (stereo not given)?
AID504770: -1.2; Ba CapD inh: 0.27

How did Cc1cccn2c(=O)c(/C=C(\C#N)C(=O)N3CCCCC3)c(N3CCOCC3)nc12 do in these assays?
AID504770: 0.45

Results for CCOC(=O)C(NC(=O)c1cc2nc(-c3cccs3)cc(C(F)(F)F)n2n1)C(=O)OCC ?
Ba CapD inh: 3.1

How did Cc1cc(=O)[nH]c(Cc2c(Cl)cccc2Cl)n1 do in these assays?
AID504770: 0.55; Ba CapD inh: -0.23

What do the screens show for `CC(=O)Nc1ccc(N2C(=O)CSC2c2c(F)cccc2Cl)cc1` (stereo not given)?
AID504770: -0.2; Ba CapD inh: -0.99

What do the screens show for `CC(C(=O)NC1CCCC1)n1sc2ccccc2c1=O` (stereo not given)?
AID504770: -0.3; Ba CapD inh: 0.32

What do the screens show for `CCOC(=O)c1ccc(NC(=O)c2cc(-c3ccc(OC)cc3)nc3ccccc23)cc1`?
Ba CapD inh: 1.1

Reprinted at random: four compounds from above
What do the screens show for `CC(C(=O)NC1CCCC1)n1sc2ccccc2c1=O` (stereo not given)?
AID504770: -0.3; Ba CapD inh: 0.32

What do the screens show for `COC(=O)C1=C(C)OC(=O)C1(NC(=O)C1CCCCC1)C(F)(F)F` (stereo not given)?
AID504770: -1.2; Ba CapD inh: 0.27

What do the screens show for `COc1cc(OC)cc(C(=O)Nc2cc(C(=O)Nc3ccccc3OC)ccc2N2CC3CC(C2)c2cccc(=O)n2C3)c1` (stereo not given)?
Ba CapD inh: 0.01

What do the screens show for `CSc1sc(C(=O)O)c2c1S(=O)(=O)N(C)c1ccsc1-2`?
AID504770: -0.7; Ba CapD inh: 0.1

More records:
What do the screens show for `Cc1ccc(-c2cc(-c3c(C)n[nH]c(=O)c3N)[nH]n2)cc1`?
AID504770: -0.1; Ba CapD inh: 0.67

What do the screens show for `Cc1ccc2oc(=O)c(-c3nc(-c4ccccc4)no3)cc2c1`?
AID504770: 0.1; Ba CapD inh: 0.95

What do the screens show for `CC1=Nc2ccc(Br)cc2C(c2ccccc2)N1CC(=O)NN` (stereo not given)?
AID504770: -0.75; Ba CapD inh: -0.085

How did CC(=O)Nc1nonc1NC1=CCCCC1 do in these assays?
AID504770: -0.75; Ba CapD inh: 0.69

How did CCc1ccccc1NC(=O)CSc1nncn2c1cc1sccc12 do in these assays?
AID504770: -0.15; Ba CapD inh: -2.2

Results for Cc1ccc(NC(=O)NN2CCOCC2)cc1 ?
AID504770: 0.45; Ba CapD inh: -0.045

What do the screens show for `Cc1ccc(Nc2cc(-n3nc(C)cc3C)nc(-c3ccccc3)n2)cc1`?
AID504770: 0.1; Ba CapD inh: 20

How did COc1ccc(NC(=O)c2cccn(Cc3ccccc3Cl)c2=O)cc1OC do in these assays?
Ba CapD inh: -1.5

How did CCc1ccc(NC(=O)CSc2nc3ccccc3c(=O)n2CCc2ccccc2)cc1 do in these assays?
AID504770: -0.35; Ba CapD inh: -0.2

What do the screens show for `CC(C)N(C(=O)CSc1nc2ccccc2n1CC(=O)N1C(C)CCCC1C)C(C)C` (stereo not given)?
AID504770: 2.2

How did CCN1C(=O)C2NN=C(C(=O)c3nc(Cl)ccc3Cl)C2C1=O (stereo not given) do in these assays?
AID504770: -0.7; Ba CapD inh: -2.1

Results for O=C(CC1CCCC1)NCc1cn2ccsc2n1 ?
AID504770: 0.2

Results for CN(C(=O)c1ccccc1)c1ccc(OCC(=O)O)cc1 ?
AID504770: -0.6; Ba CapD inh: 0.28

How did CCN(CC)CC(O)Cn1c2c(c3cc(C)ccc31)CCCC2 (stereo not given) do in these assays?
AID504770: 0.4; Ba CapD inh: 0.52

What do the screens show for `O=C(O)CCc1ccc(-c2ccccc2)[nH]1`?
AID504770: -1.5; Ba CapD inh: 18

What do the screens show for `CCOP(=O)(OCC)c1nc(-c2ccc(Cl)cc2Cl)oc1NCc1ccccc1`?
Ba CapD inh: 7

How did CN(C)S(=O)(=O)c1ccc2[nH]c(=O)[nH]c2c1 do in these assays?
AID504770: 1.5; Ba CapD inh: -0.11

How did CCc1nnc(SC(CC)C(=O)N2CCCCCC2)c2cc3sccc3n12 (stereo not given) do in these assays?
AID504770: 0.95; Ba CapD inh: 0.23

How did Cc1cc2c(=O)n(Cc3ccco3)c(SCC(N)=O)nc2s1 do in these assays?
AID504770: -0.8; Ba CapD inh: -0.94

Results for O=C(Cn1c2ccc(F)cc2c2nc3n(c(=O)c21)CCS3)N1CCCC1 ?
AID504770: 2.2

Results for CCOC(=O)c1cccc(NC(=O)c2c(C)[nH]c(C(=O)OCC)c2CC)c1 ?
AID504770: 1.1; Ba CapD inh: -0.88

Results for O=C1C=C(NCc2ccccc2)CC(c2ccc(Cl)cc2)C1 (stereo not given) ?
Ba CapD inh: 0.22

How did COc1ccc(C2N(c3cccc(C)c3)CCN2c2cccc(C)c2)cc1Br do in these assays?
Ba CapD inh: 0.14

Results for CC(C)(C)C(=O)c1sc2c(c1N)c(=O)[nH]c(=O)n2CC1CCCO1 (stereo not given) ?
AID504770: 0

How did Cc1ccc(S(=O)(=O)N2c3cccc4cccc(c34)S2(=O)=O)cc1 do in these assays?
Ba CapD inh: -0.27

Results for O=C(CN1CCCCC1)N1c2ccccc2Sc2ccc(Cl)cc21 ?
Ba CapD inh: 0.11

What do the screens show for `COc1ccc(OC)c2c(N3CCOCC3)cc(C(F)(F)F)nc12`?
AID504770: -0.15; Ba CapD inh: -0.11

How did O=C(O)C1=NN(c2ccccc2)C(=O)CC1 do in these assays?
AID504770: -0.15; Ba CapD inh: 0.85

Assay outcomes from PubChem BioAssay.
